Screening results: PubChem BioAssay, Johns Hopkins Ion Channel Center
KCNQ2 inh: KCNQ2 potassium channel inhibitors, primary screen, cell-based, CHO-K1, FluxOR thallium flux, B-score (AID 2156); Potassium voltage-gated channel subfamily KQT member 2 (Rattus norvegicus), O88943; 20 min; active compounds read low; only compounds with negative scores are shown here; some inactives read as strong as hits; B-score at 10 µM; hit rate 1.1% among 310,000;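 active = fluorescence ratio B-score at most minus 3 library SDs, with starting brightness B-score within 2 library SDs, cut at about -5.5 in these data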
Target sequence (O88943 whole entry, looked up): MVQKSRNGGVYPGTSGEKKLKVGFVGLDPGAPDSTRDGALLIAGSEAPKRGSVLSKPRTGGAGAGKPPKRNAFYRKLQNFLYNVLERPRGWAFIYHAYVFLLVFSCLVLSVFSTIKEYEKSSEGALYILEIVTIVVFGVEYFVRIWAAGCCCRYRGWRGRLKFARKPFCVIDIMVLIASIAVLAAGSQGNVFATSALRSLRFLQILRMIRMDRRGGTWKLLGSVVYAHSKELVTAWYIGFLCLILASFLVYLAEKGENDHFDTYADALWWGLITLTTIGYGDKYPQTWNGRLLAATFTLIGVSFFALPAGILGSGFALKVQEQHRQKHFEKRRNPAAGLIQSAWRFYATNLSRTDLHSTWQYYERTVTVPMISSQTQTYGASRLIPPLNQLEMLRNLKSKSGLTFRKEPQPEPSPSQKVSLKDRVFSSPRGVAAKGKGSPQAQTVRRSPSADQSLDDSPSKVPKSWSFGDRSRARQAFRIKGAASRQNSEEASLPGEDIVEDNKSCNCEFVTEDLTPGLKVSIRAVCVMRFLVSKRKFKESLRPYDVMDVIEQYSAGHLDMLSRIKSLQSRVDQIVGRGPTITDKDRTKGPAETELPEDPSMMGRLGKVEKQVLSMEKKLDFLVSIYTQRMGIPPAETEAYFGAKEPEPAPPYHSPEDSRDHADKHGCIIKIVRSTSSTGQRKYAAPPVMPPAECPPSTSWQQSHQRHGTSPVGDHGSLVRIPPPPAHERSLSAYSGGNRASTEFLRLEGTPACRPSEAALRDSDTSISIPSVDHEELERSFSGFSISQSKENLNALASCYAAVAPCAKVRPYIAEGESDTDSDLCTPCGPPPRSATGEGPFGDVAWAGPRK
KCNQ2 inh baseline: recorded beside KCNQ2 inh, whose call it bears; B-score; measured here: initial fluorescence intensity artifact check;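 brightness before thallium and not channel activity; 0 = typical well and far values either way flag optical interference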
* hit, by the source's call; i = inactive.

SMILES	KCNQ2 inh	KCNQ2 inh baseline
c1ccc2cc(CSCc3nc4ccccc4[nH]3)ccc2c1	i	-1.1
Cc1ccc(C)c(N2CCN(C(=O)CCS(=O)(=O)c3ccc4c(c3)CCN4C(=O)C3CC3)CC2)c1	i	-0.05
CCN(CC(=O)Nc1cc(Cl)ccc1C)C(=O)c1oc2ccc(OC)cc2c1C	i	-0.68
CC(C)c1nc(NCc2ccccc2)c(C#N)c2c1CCCC2	i	-0.26
Cc1cccc(NC(=O)Nc2cccc3ccccc23)c1	i	1.9
O=C(NCc1nc2ccccc2[nH]1)C1=C[C@@H](c2ccc(Br)cc2)C[C@@H](OCCCCO)O1	i	-0.29
CC1(/[N+]([O-])=C\c2ccccc2F)CCCCC1=O (configuration not stated)	i	-3.5
Cc1cc(Br)cc(Br)c1OCC(=O)NNC(=O)Nc1ccccc1	i	-0.04
Cc1c(-n2c(=S)[nH]c3ccccc3c2=O)c(=O)n(-c2ccccc2)n1C	i	0.47
COCCN1CN=C(Nc2nc3ccccc3o2)NC1	i	-0.25
COc1ccc(C2SCCN2S(=O)(=O)c2ccccc2)cc1 (configuration not stated)	i	-0.54
Cc1ccc(C(c2nnnn2CS(=O)(=O)c2ccc(C)cc2)N2CCC(C(N)=O)CC2)cc1 (configuration not stated)	i	0.78
CC(C)CN(CC(C)C)C(=O)Nc1ccc(F)cc1F	i	-0.84
O=C(O)C1CCCCC1C(=O)Nc1ccc2c(c1)CCC2 (configuration not stated)	i	0.5
Cn1c(Sc2nc3ccccc3n2C)nc2ccccc21	i	0.87
CC(C)Sc1nc2ccsc2c(=O)[nH]1	i	0.85
Cc1ccc(S(=O)(=O)c2cc3ccccc3oc2=O)cc1	i	-0.52
Cc1ccc(/C=N/Nc2nncn2N)cc1	i	-0.9
COc1cc(NC(=O)C2CCCN(S(=O)(=O)c3cnc[nH]3)C2)cc(OC)c1 (configuration not stated)	i	-0.3
Cc1ccc(S(=O)(=O)Nc2nc3ccccc3s2)cc1[N+](=O)[O-]	i	-0.84
CCOC(=O)Cc1csc(NC(=O)CSc2nc3sc(C(=O)O)c(C)c3c(=O)[nH]2)n1	i	1.7
Cc1ccc(S(=O)(=O)N2CCCC(C(=O)N3CCN(c4ccccc4)CC3)C2)cc1 (configuration not stated)	i	-1.4
Cc1cc(-c2ccccc2)nc2cc(C(=O)NCc3ccco3)nn12	i	1.2
Cc1cccc([C@@H]2[C@@H]3C(=O)N(Cc4ccccc4)C(=O)[C@@H]3[C@]3(C)C(=O)N(c4ccc(C(F)(F)F)cc4)C(=O)N23)c1	i	-0.7
Cc1ccc2c(c1)NC(=O)c1cc([N+](=O)[O-])ccc1O2	i	1.6

Reformatted: two of the compounds above
O=C(O)C1CCCCC1C(=O)Nc1ccc2c(c1)CCC2 (configuration not stated)
  KCNQ2 inh: i
  KCNQ2 inh baseline: 0.5

CC1(/[N+]([O-])=C\c2ccccc2F)CCCCC1=O (configuration not stated)
  KCNQ2 inh: i
  KCNQ2 inh baseline: -3.5

(listing goes on)
SMILES	KCNQ2 inh	KCNQ2 inh baseline
CC(=O)Nc1ccc(NC(=O)CSc2nc3nc(C)cc(C)c3c(=O)[nH]2)cc1	i	-1.3
O=[N+]([O-])c1ccc(CN2CCN(c3ccc([N+](=O)[O-])cc3)CC2)cc1	i	0.09
CS(=O)(=O)Nc1ccc(C(=O)NCc2cccnc2)cc1	i	0.86
Cc1ccc(S(=O)(=O)N2CCOC2CNC(=O)C(=O)NCCc2c[nH]c3ccccc23)cc1 (configuration not stated)	i	2.2
O=C(/N=C1/c2ccccc2CN1c1ccccc1)Nc1ccccc1	i	-2.6
CCCOc1ccc(N2C(=O)CC(SCc3nc4ccccc4[nH]3)C2=O)cc1 (configuration not stated)	i	-1.3
O=C(NCC1CCCO1)/C(=C/c1ccccc1)NC(=O)c1ccccc1 (configuration not stated)	i	-0.32
COc1cc(CN(C2CCCCC2C)S(=O)(=O)c2ccc(S(=O)(=O)NC3CC3)cc2)cc(OC)c1OC (configuration not stated)	i	0.38
O=C(c1ccc(Cl)cc1)C(CN1CCCCC1)c1ccccc1 (configuration not stated)	i	0.31
Cc1[nH]nc(-c2ccc(O)c(C)c2O)c1-c1cnn(-c2ccccc2)c1	i	-1.8
Cc1ccc(C(=O)N2CC(C)SC2=Nc2cccc(S(=O)(=O)N(C)C)c2)cc1 (configuration not stated)	i	0.89
COc1ccc(/C=N/NC(=O)C(=O)/C=C2\NC3(CCCC3)Cc3ccccc32)cc1	i	-1.9
CC(C)c1ccc(NC2CCCN(C(=O)c3cccnc3)C2)cc1 (configuration not stated)	i	0.05
N#CCC(CNc1ncc(C(F)(F)F)cc1Cl)OC(=O)c1ccc(Cl)cc1Cl (configuration not stated)	i	0.01
Cc1ccc(OCc2nnnn2-c2ccccc2)cc1	i	0.62
CC(C)NC(=O)Cn1c(SCC(=O)N2c3ccccc3CC2C)nc2ccccc21 (configuration not stated)	i	-0.02
C#Cc1ccc(C(=O)NCc2ccc(N3CCCC3=O)cc2)cc1	i	-2.6
CCc1ccc(-c2nc(SCC(=O)N(CCOC)c3c(N)n(Cc4ccccc4)c(=O)[nH]c3=O)n[nH]2)cc1	i	2
CN(C)C(CNC1CC(C)(C)NC(C)(C)C1)c1cccc(F)c1 (configuration not stated)	i	1.4
COC(=O)c1ccc(-n2cnc3ccccc32)nc1	i	1.4
Fc1ccccc1COc1ccc(/C=N/n2cnnc2)cc1	i	-1.5
CCOC(=O)C1CCCN(c2oc(-c3ccc(F)cc3)nc2C#N)C1 (configuration not stated)	i	-0.86
O=C(Nc1ccc2c(c1)OCCO2)c1ccccn1	i	-0.01
C=CCn1c(C)cc(C2=NNC(=Nc3ccc(C)cc3)SC2)c1C	i	1.1
COc1ccc(C2c3cc(OC)c(OC)cc3CCN2C2CC(=O)N(c3ccccc3)C2=O)cc1OC (configuration not stated)	i	-0.04
SMILES	KCNQ2 inh	KCNQ2 inh baseline
CCOc1cc(S(=O)(=O)N2CCC(Cc3ccccc3)CC2)c(OCC)cc1-n1cnnn1	i	-2.8
OCCC1CN(Cc2cccc3nccnc23)CCN1Cc1ccc(F)cc1 (configuration not stated)	i	-0.03
O=C(/C=C/c1ccc2c(c1)OCO2)Nc1nc2ccc(F)cc2s1	i	-1.1
O=C1c2ccccc2C(=O)N1CCCCSc1nc2ccccc2c(=O)n1CCCN1CCOCC1	i	-1.5
CCOC(=O)Cc1nnc(NC(=O)CSc2nnc3c4ccccc4n(C(C)C)c3n2)s1	i	-0.14
CCOC(=O)C1C(c2cccnc2)NC(=O)NC1(O)C(F)(F)F (configuration not stated)	i	0.71
Cc1cc2ncn(/N=C/c3ccc(-c4ccccc4)o3)c2cc1C	i	0.13
Cc1cc(-c2nnc(-c3ccccc3)c(-c3ccccc3)n2)c(C)o1	-9.9*	-0.09*
CCCCNc1c(-c2cccc(-c3cc(C(C)=O)cs3)c2)nc2cc(C)ccn12	i	-1.9
CCCCn1nnc(NC(=S)NC(=O)c2cccs2)n1	i	-2
COC(=O)C1=C(C)N(c2ccc(Cl)cc2)/C(=C/c2cccs2)C1=O	i	1.5
CCn1c(O)c(/C=N/NC(=O)c2ccncc2)c(=O)n(CC)c1=S	i	-0.73
O=C(CN1C(=O)c2cccc3cccc1c23)Nc1ccccc1C(=O)NCc1ccco1	i	0.02
CCOC(=O)CNC(=O)OC1CCN2Cc3ccccc3N=C12 (configuration not stated)	i	0.5
CSCCC(NS(=O)(=O)c1ccc(Cl)cc1)C(=O)OCc1cccc(Cl)c1 (configuration not stated)	i	-1.6
Cc1ccc(NC(=O)C(C)SCc2ccccc2)cc1 (configuration not stated)	i	1.2
O=C(C1CC(=O)N(c2ccc(F)cc2)C1)N1CCCCCC1 (configuration not stated)	i	-0.31
O=C(Nn1cnnc1)C(c1ccccc1)c1ccccc1	i	0.52
O=C(N[C@@H](Cc1ccccc1)C(=O)NCc1ccc(F)cc1)C1CCNCC1	i	-0.1
CC(NC(=O)Cc1ccccc1F)c1ccc(F)cc1 (configuration not stated)	i	1
O=C1c2cccnc2C(=O)N1CO	i	1.1
O=C1C(=O)N(CC2COc3ccccc3O2)c2ccccc21 (configuration not stated)	i	0.07
Cc1ccc(-c2nn(-c3ccccc3)c3[nH]c(=O)c(CNCc4ccccc4)cc23)cc1	i	-1.2
c1ccc(CCNc2ncnc3c2cnn3-c2ccccc2)cc1	i	-1
CCCCNC(=O)CSc1nc(O)cc(=O)n1C1CCCC1	i	-3

Given comma-delimited: 16 of the compounds above
SMILES,KCNQ2 inh,KCNQ2 inh baseline
CCCCn1nnc(NC(=S)NC(=O)c2cccs2)n1,i,-2
COC(=O)C1=C(C)N(c2ccc(Cl)cc2)/C(=C/c2cccs2)C1=O,i,1.5
CCn1c(O)c(/C=N/NC(=O)c2ccncc2)c(=O)n(CC)c1=S,i,-0.73
O=C(CN1C(=O)c2cccc3cccc1c23)Nc1ccccc1C(=O)NCc1ccco1,i,0.02
CCOC(=O)CNC(=O)OC1CCN2Cc3ccccc3N=C12 (configuration not stated),i,0.5
CSCCC(NS(=O)(=O)c1ccc(Cl)cc1)C(=O)OCc1cccc(Cl)c1 (configuration not stated),i,-1.6
Cc1ccc(NC(=O)C(C)SCc2ccccc2)cc1 (configuration not stated),i,1.2
O=C(C1CC(=O)N(c2ccc(F)cc2)C1)N1CCCCCC1 (configuration not stated),i,-0.31
O=C(Nn1cnnc1)C(c1ccccc1)c1ccccc1,i,0.52
O=C(N[C@@H](Cc1ccccc1)C(=O)NCc1ccc(F)cc1)C1CCNCC1,i,-0.1
CC(NC(=O)Cc1ccccc1F)c1ccc(F)cc1 (configuration not stated),i,1
O=C1c2cccnc2C(=O)N1CO,i,1.1
O=C1C(=O)N(CC2COc3ccccc3O2)c2ccccc21 (configuration not stated),i,0.07
Cc1ccc(-c2nn(-c3ccccc3)c3[nH]c(=O)c(CNCc4ccccc4)cc23)cc1,i,-1.2
c1ccc(CCNc2ncnc3c2cnn3-c2ccccc2)cc1,i,-1
CCCCNC(=O)CSc1nc(O)cc(=O)n1C1CCCC1,i,-3

Following part
SMILES	KCNQ2 inh	KCNQ2 inh baseline
CCOC(=O)C1NN=C(C(=O)c2ccc(C)cc2)C1c1ccc(C)cc1 (configuration not stated)	i	1.1
Oc1ccccc1/C=N/n1c(-c2ccccc2)n[nH]c1=S	i	1.8
Cc1ccc(NS(=O)(=O)c2sc3ccc(Cl)cc3c2C)cc1	i	-0.29
O=C(O)c1ccc(NS(=O)(=O)c2ccc(Cl)cc2)cc1	i	0.42
CCOC(=O)CSc1nc2nc(C)cc(C)n2n1	i	0.66
CCC1C2CN(C(C)=O)CC=C2C(C#N)=C(N)C1(C#N)C#N (configuration not stated)	i	1.6
O=C(CSc1nnc(NC(=O)c2ccc(F)cc2)s1)NC1CC1	i	2.3
CCCC(C(=O)NCc1ccco1)N(C(=O)CNS(=O)(=O)c1ccccc1)C1CCCC1 (configuration not stated)	i	-1.4
CCCCCC(=O)Nc1ccccc1N1CCN(c2ccccc2)CC1	i	0.51
Cc1cccc(OC2CCN(Cc3c(C(=O)N4CCCC4)nc4ccccn34)CC2)c1	i	1
O=C(Nc1nc2c(F)cc(F)cc2s1)C1COc2ccccc2O1 (configuration not stated)	i	-0.8
CC(C)n1c(S(=O)(=O)O)nc2ccccc21	i	1.2
Nc1nnc(SCC(=O)N2CCc3ccccc3C2)s1	i	-0.41
CCN(CC)c1ccc(C2C(C(=O)OCCOC(C)C)=C(C)NC3=C2C(=O)CCC3)cc1 (configuration not stated)	i	-0.02
Cc1cc(C(=O)N/N=C/c2ccc([N+](=O)[O-])cc2)c(C)o1	i	-0.04
S=C(Nc1ccc(Br)cc1Cl)NN1CCOCC1	i	0.43
CC(Oc1ccccc1Cl)C(=O)Nc1ccc(S(=O)(=O)N2CCCC2)cc1 (configuration not stated)	i	0.85
CCC1CCCCN1CCCNC(=O)Cn1ncc2c(C)n(Cc3ccccc3Cl)c(C)c2c1=O (configuration not stated)	i	-0.64
CCOc1ccc(S(=O)(=O)N2CCN(C)CC2)c(C)c1C	i	0.24
O=C(CCCC(=O)N1CCN(c2ccc([N+](=O)[O-])cc2)CC1)c1ccccc1	i	-0.93
O=C(Nn1cnc2ccccc2c1=O)c1ccccc1Cl	i	2.4
COc1ccccc1COCC(O)CN1CCCCC1CO (configuration not stated)	i	-0.33
COCCCN1C(=O)C(=O)/C(=C(/O)c2ccc(OC)cc2)C12C(=O)N(C)c1ccccc12 (configuration not stated)	i	0.13
CCN(CC)c1ccc(/C=N/NC(=O)CNC(=O)/C=C/c2ccco2)cc1	i	-0.47
Cc1onc(-c2c(F)cccc2Cl)c1C(=O)O/N=C(\N)c1ccc([N+](=O)[O-])o1	i	-3.6
SMILES	KCNQ2 inh	KCNQ2 inh baseline
COc1cc([C@@H]2[C@H]3CN(C)CC=C3C(C#N)=C(N)C2(C#N)C#N)cc2c1OCO2	i	0.95
S=C1NC[C@H](Cc2ccccc2)N1CCCCC1CCCCC1	i	1.4
COC(=O)Nc1ccc(Oc2ccccc2)cc1	i	1.9
O=C(NCc1cccc(C(F)(F)F)c1)C1CC(c2ccccc2[N+](=O)[O-])=NO1 (configuration not stated)	i	-0.2
CN(CC(=O)NCCc1ccc(S(N)(=O)=O)cc1)S(=O)(=O)c1ccc(Br)s1	i	1.1
Cc1nn2c3c(cnc2c1-c1ccccc1)C(=O)CC(c1ccco1)C3 (configuration not stated)	i	0.87
CCOC(=O)CN1C(=O)CC(c2ccccc2)C1=O (configuration not stated)	i	-0.16
COc1ccc(C2CC(c3ccc(F)cc3)Nc3nc(N)nn32)cc1OC (configuration not stated)	i	2.4
COc1cccc(-c2nc(CCl)cs2)c1OC	i	0.9
O=C(Nc1cnn(C23CC4CC(CC(C4)C2)C3)c1)c1cnn2cccnc12	i	-0.96
C[C@@]12CCC=C[C@H]1[C@H](c1ccoc1)N(Cc1ccccc1)C2=O	i	2.6
CC(=O)c1ccc(N(C(=O)Cn2nnc3ccccc32)C(C(=O)NCc2ccccc2)c2ccccn2)cc1 (configuration not stated)	i	-1.1
C(=N\Nc1nc(N2CCCCCC2)nc(N2CCCCCC2)n1)/c1ccccc1	-5.8*	-2.5*
COc1ccc(OCCC(=O)NCCN2CCOCC2)cc1	i	3
CCN(CC(=O)Nc1c(F)cccc1F)C(=O)C1CCN(C(=O)c2ccc(Cl)cc2)CC1	i	0.01

A portion of the library. The share of hits here may be higher or lower than overall.
